Assay outcomes: PubChem BioAssay, National Center for Advancing Translational Sciences (NCATS)
PK Bst – pyruvate kinase (B. stearothermophilus) modulation. partly purified Bacillus stearothermophilus pyruvate kinase, luminescence ATP production; ribose 5-phosphate activator present at AC10. Potency, µM. 51,000 tested, 1.2% active. AID 361; in the data active means potency below about 11 µM; inconclusive means mostly about 12 µM to 25 µM; inactive means weaker than that;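 the screen sought inhibitors and activators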;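 note: potency is the fitted concentration of half-maximal effect; scaled between full activation by ribose 5 phosphate and full inhibition by luteolin; about four in five hits inhibit and the cells do not say which; series up to 57 µM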
TsaE inh – YjeE (TsaE) inhibition, E. coli; Potency, µM; AID 605; 71,000 tested, 0.05% active; purified YjeE, fluorescence polarisation of a bound ADP probe; active = well fitted falling curve; inconclusive = weaker or top-dose-only fall, or a rising curve; inactive = flat or poorly fitted curve;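 note: top concentration of the series not given in the record; excess ADP was the control for the full effect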
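Purified YjeE (10 uM) with BODIPY Texas Red-labeled ADP probe (2 uM); compounds pin-transferred, 15 min at room temperature. Binding inhibition read as decreased fluorescence polarization; ADP titration as control.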
Numbers without * were called inactive; i = inactive; ? = inconclusive; . = no result given. Not all compounds are listed; the hit share may differ from the screen's.

smiles | PK Bst | TsaE inh
O=C(NC1CCN(C(=O)Nc2ccccc2)CC1)C1CCCCC1 | >57 | i
O=C(Nc1c(-c2ccccc2)nc2c(Br)cc(Br)cn12)c1ccco1 | >57 | i
CCOC(=O)/C=C1\SCC(=O)N1CC(O)CN1C(=O)CS/C1=C\C(=O)OCC | >57 | i
O=C1C2C(C(=O)N1Cc1cccnc1)C1C=CC2C12CC2 (centres undefined) | >57 | i
COC(=O)COc1ccc(Oc2cc(C)nc(SC)n2)nn1 | >57 | i
CCN(CC)CC(=O)Nc1c(Br)ccc2c1OCO2 | >57 | i
COc1ccc(CNc2nc3c(c(=O)[nH]c(=O)n3C)n2CCCc2ccccc2)cc1 | >57 | i
CC(=O)Nc1ccc(C(=O)CSc2nnc(-c3ccc(O)cc3)n2CC2CCCO2)cc1 (centres undefined) | >57 | i
CCO[C@H]1O[C@@H]([C@H](COCc2ccccc2)OCc2ccccc2)[C@@H](OCc2ccccc2)[C@H]1O | . | i
CCOC(=O)Cn1c(=O)oc2cc(S(=O)(=O)NC3CCCc4ccccc43)ccc21 (centres undefined) | . | i
CC(=O)Nc1cccc(-c2cnc3ccccc3n2)c1 | i | i
CN(Cc1ccccc1)c1nc2c(c(=O)[nH]c(=O)n2C)n1CCSc1nc2ccccc2[nH]1 | >57 | i
CCOC(=O)C1C2C=CC3(CN(c4ccccc4CC)C(=O)C13)O2 (centres undefined) | >57 | i
CCOC(=O)CSC1=Nc2ccccc2C2=NC(CC(=O)NCc3ccc4c(c3)OCO4)C(=O)N12 (centres undefined) | >57 | i
Cc1ccc(CNC(=O)[C@H]2C[C@@H]2[C@H](NP(=O)(c2ccccc2)c2ccccc2)c2ccccc2)c(F)c1F | . | i
CCOC(=O)C1=C(N)N2C(=O)CSC2=C(C(=O)OC)C1 | >25.6 | .
Cc1cccc(S(=O)(=O)c2c(N)n(/N=C/c3ccco3)c3nc4ccccc4nc23)c1 | . | i
N#Cc1nc(COc2cccc(Cl)c2)oc1N1CCCC1 | . | i
COc1cccc(CNC(=O)Cn2c(=O)oc3ccccc32)c1OC | . | i
CCCC(=O)Nc1c2c(nn1-c1ccc(OC)cc1)CS(=O)(=O)C2 | >57 | i
CCOC(=O)c1cc2sc(C)cc2n1CC(=O)NCc1ccc(F)cc1 | >57 | i
CC(=O)N1CCc2cc(Br)cc(S(=O)(=O)NCCCN3CCC(C)CC3)c21 | >57 | i
O=S1(=O)Nc2c(ccc3cccnc23)-c2ccccc21 | . | i
CC(SC1CCCC1)C(=O)NC(C)(C#N)C(C)C (centres undefined) | >57 | i
c1ccc(Nc2c3c(nc4ncnn24)CCC3)cc1 | >57 | i

smiles | PK Bst | TsaE inh
O=C(CCNS(=O)(=O)c1cccc2nsnc12)NCCc1ccccc1 | . | i
O=C(O)Cn1nnnc1SCC(=O)Nc1ccc(OC(F)(F)F)cc1 | . | i
c1nc(N2CCNCC2)c2sc3nc(N4CCOCC4)c4c(c3c2n1)CCC4 | >57 | i
C=CCc1cccc(CNc2nc3ccccc3n2C(C)C)c1O | >11.4 | .
Cc1[nH]c(N)nc(=S)c1CCCNc1ccccc1 | . | i
FC(F)(F)c1ccccc1-c1cncnc1NCc1cccnc1 | . | i
Cc1oc(C)c(C(N)=O)c1C(N)=O | >57 | i
Cc1ccn2cc(CCNC(=O)c3ccc(Br)o3)nc2c1 | . | i
CCCCC(=O)Nc1ccc2c(c1)OCCO2 | >57 | i
C(=C\c1ccccc1)/CN1CCN(Cc2ccc3c(c2)OCCO3)CC1 | . | i
Cc1cc(NC(=O)Cn2nc(C(F)(F)F)c3c2CCC3)n(-c2ccccc2)n1 | >57 | i
S=C(CSc1ccccc1)Nc1cccc2ccccc12 | . | i
Cc1nn(Cc2ccccc2Cl)c(C)c1C(=O)NCc1ccco1 | >57 | i
CCCCOc1ccccc1NC(=O)CC1Nc2ccccc2NC1=O (centres undefined) | . | i
O=C(CN1C(=O)COc2ccc(Cl)cc21)Nc1ccc2c(c1)OCCO2 | 3.64* | i
CCc1nnc(NCn2nc(C)cc2C)s1 | . | i
CCN(CC)CCNC(=O)c1c(C)oc2cc(Br)c(OC)cc12 | >25.6 | .
CCNc1ncc2nc(-c3cn(C)c4ccccc34)c(=O)n(-c3ccccc3)c2n1 | . | i
CCOC(=O)N1CCN(C(=O)Cn2ncn3nc(-c4cccs4)cc3c2=O)CC1 | >57 | i
Nc1cc(Cl)c(NC2=NCCN2)c(Cl)c1 | . | i
COCCn1nnnc1CN(CCc1ccc(OC)c(OC)c1)Cc1cc2ccc(C)cc2[nH]c1=O | >57 | i
CS(=O)(=O)N(CC(N)=O)c1ccc(F)c(Cl)c1 | >57 | i
CC(=O)N1CCN(CC(=O)Nc2c(Cl)cccc2Cl)CC1 | ? | i
Cc1cc(=O)oc(C)c1C(=O)NCCCN1CCN(c2ccc(F)cc2)CC1 | >57 | i
CC(C)(C)Cc1nnc(NS(=O)(=O)c2ccc(F)cc2)s1 | >57 | i

Continued; it opens with the 3 that closed the last part.
smiles | PK Bst | TsaE inh
CC(=O)N1CCN(CC(=O)Nc2c(Cl)cccc2Cl)CC1 | ? | i
Cc1cc(=O)oc(C)c1C(=O)NCCCN1CCN(c2ccc(F)cc2)CC1 | >57 | i
CC(C)(C)Cc1nnc(NS(=O)(=O)c2ccc(F)cc2)s1 | >57 | i
O=c1n(CC2CO2)c(=O)n(CC2CO2)c(=O)n1CC1CO1 (centres undefined) | . | ?
Cn1nc(-c2ccc(C(=O)NCC3CCCO3)cc2)c2ccccc2c1=O (centres undefined) | >57 | i
Cc1cccc(CN2CCN(C(c3ccccc3)c3ccc(Cl)cc3)CC2)c1 (centres undefined) | >25.6 | .
Cc1cc(=O)oc2cc(Oc3ncccn3)ccc12 | >57 | i
C=CCN1C(=O)/C(=C2\SC(N3CCOCC3)=NC2=O)c2cc(Br)ccc21 | >57 | i
O=C(CCCn1c(=O)[nH]c2ccsc2c1=O)N1CCCCC1 | >57 | i
Cc1ccc(CNC(=O)CSc2nc(N3CCCCC3)nc(N3CCCCC3)n2)cc1 | >57 | i
Cc1cc(C)n2nc(-c3cccnc3)nc2n1 | >57 | i
COc1ccc(-n2c(=O)cc(N3CCN(c4ccccc4OC)CC3)[nH]c2=O)cc1 | >57 | i
CC(=O)NCCNc1ncnc2ccc(-c3ccc4c(c3)OCO4)cc12 | . | i
O=S(=O)(c1ccc2c(c1)OCCO2)N1CCC(O)(c2ccc(Cl)cc2)CC1 | >57 | i
O=C(CSc1nc(-c2ccccc2)cc(=O)[nH]1)N1CCc2ccccc21 | >57 | i
CCC(c1nnc(SCCNCCO)n1CCN1CCOCC1)N(C)C (centres undefined) | >57 | i
O=C(CCc1ccccc1)N1CCN(CCO)CC1 | . | i
Cc1cccc(NC(=O)CN2CCN(CC(=O)Nc3cccc(C)c3)CC2)c1 | . | i
NS(=O)(=O)c1ccc(CCNC2CC(=O)N(CCc3ccccc3)C2=O)cc1 (centres undefined) | . | i
CCOC(=O)C(C)Sc1ccc2nnc(-c3ccc(F)cc3)n2n1 (centres undefined) | >57 | i
CCc1nnc(NC(=O)c2ccc(NS(=O)(=O)c3ccccc3)cc2)s1 | >57 | i
CCC1CCCCN1CCNS(=O)(=O)c1ccc2c(c1)oc(=O)n2C (centres undefined) | . | i
COc1cc(C(=O)N2CCN(C(=O)Cc3ccccc3)CC2)cc(OC)c1OC | . | i
CCCCC(CC)CNC(=O)c1[nH]c(C)c(C(C)=O)c1C (centres undefined) | . | i
O=S1(=O)CCN2C(=N1)Sc1c2ccc2c1CCCC2 | . | i
CSc1nc2ccc(S(=O)(=O)Nc3c(C)n(C)n(-c4ccccc4)c3=O)cc2s1 | >57 | i
Cc1cc(C)n2c(SCCC(C)C)nnc2n1 | >57 | i
O=C(Nc1c(C(=O)Nc2cccc(F)c2)oc2ccccc12)c1ccc2c(c1)OCO2 | >57 | i

smiles | PK Bst | TsaE inh
CC1(C)OC(=O)C(=CNCC(O)c2ccccc2)C(=O)O1 (centres undefined) | >57 | i
CCCCS(=O)(=O)NC1=NCN(CC)CN1 | >57 | i
COc1c(C)cccc1C(=O)Nc1cc(Cl)ccc1N1CCOCC1 | >57 | i
Cn1nnc(NC(=O)COc2ccc(C3CCCCC3)cc2)n1 | >57 | i
COc1ccc(Oc2coc3c(CN(C)C)c(O)ccc3c2=O)cc1 | . | i
CCCCC1(COC(=O)CCC(=O)O)C(=O)N(c2ccccc2)N(c2ccccc2)C1=O | . | i
CC(C)(C)CC(C)(C)c1ccc(OCCO)cc1 | . | i
COC(=O)C(C(=O)OC)N1C(=O)CCC1=O | >57 | i
c1csc(CNc2ccnc(-c3ccc4c(c3)OCO4)n2)c1 | . | i
COc1cccc(N2CCN(c3c4c(nc5ncnn35)CCC4)CC2)c1 | >57 | i
COc1ccc(C(C)=O)cc1COC(=O)c1ccc(S(=O)(=O)N2CCOCC2)cc1 | >57 | ?
CCn1nnc(-c2ccccc2NC(=O)C(F)(F)F)n1 | >57 | i
COc1ccc(CNc2ccnc(-c3ccccc3C(F)(F)F)n2)c(OC)c1 | . | i
Clc1ccccc1-c1nc(N2CCNCC2)c2ccccc2n1 | . | i
O=C(CCNS(=O)(=O)c1cccc2nsnc12)NC1CCN(Cc2ccccc2)CC1 | >57 | i
O=C(NC1CCCCCC1)c1cc(S(=O)(=O)N2CCC3(CC2)OCCO3)ccc1F | >57 | i
CCCc1cc(C(=O)Nc2ccc(C)cc2)no1 | . | i
O=C(Nc1ccc(OC(=O)c2cccnc2)cc1)c1cccnc1 | >57 | i
COc1ccc(CCN(C)C(=O)N2CCOCC2)cc1OC | >57 | i
COc1ccc(Cc2nnc(SCc3c(C)noc3C)n2C2CCCCC2)cc1OC | >57 | i
Cc1ccc(S(=O)(=O)C2(C(=O)O)CCCC2)cc1C | >11.4 | i
Cc1oc(C(C)(C)C)cc1C(=O)Nc1ccc2c(c1)OCCO2 | >57 | i
CSc1nc2sc3c(c2c(=O)n1C1CCCCC1)CCN(C)C3 | >25.6 | .
COc1cccc(CN(CC(=O)NCC2CCCO2)C(=O)CCC(=O)Nc2cc(C)on2)c1 (centres undefined) | >57 | i
CCOc1ccc(C(=O)CSc2nnc(N)s2)cc1 | >11.4 | i

smiles | PK Bst | TsaE inh
CCn1cc(C(=O)NCC2COc3ccccc3O2)c2cc(OC)c(OC)cc2c1=O (centres undefined) | >57 | i
O=c1cnc2cnc(Oc3cccc(Cl)c3)nc2n1C[C@H]1CCCO1 | . | i
CCOC(=O)CNC(=O)CSc1nc2sc(C)c(C)c2c(=O)n1C | >57 | i
CCOC(=O)c1ccc(-c2c(C(=O)OCC)oc3cc(O)c(CC)cc3c2=O)o1 | >57 | i
Cc1cccc(C(=O)Nc2cc(=O)n(C)c(=O)n2C)c1 | . | i
COc1cc2ccccc2cc1-c1nnc(COc2ccccc2)o1 | . | i
COc1ccccc1Nc1nc(N)nc(CSc2nnc(C)s2)n1 | >57 | i
Nc1c(-c2ccc(Cl)cc2)nnn1-c1ccccc1 | . | i
Cc1ccc(C(=O)CSc2ccccn2)cc1 | . | i
Cc1nnc(SCCCn2c(N3CCN(c4ccccc4)CC3)nc3c2c(=O)[nH]c(=O)n3C)s1 | >57 | i
O=C(Cc1ccc(Cl)cc1)Nc1ccc(N2CCN(C(=O)c3ccco3)CC2)cc1 | >57 | i
COc1cc(OC)cc(-c2cc3nc(C)c(CCC(=O)NC(C)CCc4ccco4)c(C)n3n2)c1 (centres undefined) | >57 | i
Cc1ccc2[nH]c(=O)c(CN(Cc3cccs3)Cc3nnnn3Cc3ccccc3)cc2c1 | >57 | i
c1ccc(-c2cccc(N3CCCC4(CCNCC4)C3)c2)cc1 | . | i
O=C(NCCN1CCc2ccccc2C1)C1CCN(S(=O)(=O)N2CCCCC2)CC1 | >57 | i
CCOCCCNC(=O)C1CCN(C(=O)Nc2ccc(Cl)cc2)CC1 | >57 | i
O=C(CCc1nc(-c2ccccc2)no1)NCc1ccco1 | >57 | i
CCOC(=O)N1CCC(NC(=O)CSCc2nc(-c3cccc(OC)c3)oc2C)CC1 | >57 | i
COc1ccc2[nH]cc(CCNc3ncncc3-c3cccc(C#N)c3)c2c1 | . | i
COc1ccc(F)cc1CN1CCN(c2cc(C)nc3c4c(C)cc(C)nc4nn23)CC1 | >57 | i
O=c1cc(-c2ccccc2)nc2n1Cc1ccccc1-2 | 0.878* | i
Cc1cc(C)c2c(CN3CCN(C)CC3)cc(=O)oc2c1 | >57 | i
CCOC(=O)C1CCN(C(=O)Cc2c(C(=O)O)[nH]c3ccccc23)CC1 | >57 | i
O=C(NCc1cccnc1)C1c2ccccc2C(=O)N1Cc1ccco1 (centres undefined) | >57 | i
COc1ccc(C(=O)Nc2ccc(S(=O)(=O)Nc3nccnc3OC)cc2)cc1OC | . | i

smiles | PK Bst | TsaE inh
Cc1ccc(-n2ncc(C(=O)NCc3ccc4c(c3)OCO4)c2NC(=O)c2ccco2)cc1C | >57 | i
C=CCOn1c(=O)c(=O)n(OCc2ccccc2)c2ccccc21 | >11.4 | i
Cc1c(C(=O)O)[nH]c2c1C(=O)CC(c1ccccc1)C2 (centres undefined) | >57 | i
Cc1nc2cnc(Nc3ccccc3)nc2n(Cc2cccs2)c1=O | . | i
COCCN1C=C(C(=O)OC)C(c2ccc(OC)c(OC)c2)C(C(=O)OC)=C1 | . | i
O=C(C1CCN(S(=O)(=O)c2cnc[nH]2)CC1)N1CCN(c2ncccn2)CC1 | >57 | i
